Assay outcomes as filed in PubChem.
Vaccinia mCherry – vaccinia inhibition (mCherry reporter); 310,000 compounds, 0.63% hits; Vaccinia virus mCherry reporter infection, fluorescence; about a quarter of the inactives have no number; Potency, µM (top dose mostly 36.5 µM), without a hit: at the top dose activity change, negative = inhibition, usual class: inhibitors; active = well fitted inhibition curve with a large enough effect; inconclusive = small, poorly fitted or top-dose-only effect; inactive = no such curve, though single readings can be large or run the other way; tested in A549 cells; also: nearly all actives have a fitted effect of over 35% in size; inactives centre near -10
Vaccinia Venus – inhibitors of vaccinia virus (Venus reporter); Potency, µM (highest dose often 36.5 µM), for inactives: at the highest dose activity change, negative = inhibition, hits mostly inhibitors; 330,000 compounds, 0.46% hits; AID 720580; Vaccinia virus Venus reporter expression, fluorescence; active means well fitted inhibition curve with a large enough effect; inconclusive means small, poorly fitted or top-dose-only effect; inactive means no such curve, though single readings can be large or run the other way; tested in A549 cells; also: nearly all actives have a fitted effect of over 30% in size; inactives centre near -10
* = called active by the depositor; i = inactive; ? = inconclusive; · = not tested or not shown; & = joins results of further samples; [ ] = another dose, or the depositor's remark. % is scaled to controls: 0 for no effect and ±100 for the full control effect; potency is read from the fitted curve at half-maximal effect.

SMILES	Vaccinia mCherry	Vaccinia Venus
COc1ccccc1CNC(=O)c1ccc2nc(-c3ccccc3)c(-c3ccccc3)nc2c1	-12%	-13%
Cc1cccc(N2CCN(C(=O)Cn3c(=O)c4cccn4c4ccc(F)cc43)CC2)c1C	-14%	-15%
COc1ccc(/C=C(/NC(=O)c2ccccc2OC)C(=O)Nc2ccc(C(=O)O)cc2)cc1	i	-13%
COc1ccc(C(=O)C(C)OC(=O)CNC(=O)C2CCCCC2)cc1 (centres undefined)	41%[activator]	-1%
COc1cccc(CN(C)C(=O)c2cc(-c3ccc(F)cc3)nc3ccccc23)c1	-28%	-24%
Cc1ccc(NC(=O)Cn2cc(S(=O)(=O)c3ccc(F)cc3)c(=O)c3cc4c(cc32)OCO4)cc1	1%	-3%
CCNC(=O)CN(c1ccc(OC)c(OC)c1)S(=O)(=O)c1ccccc1	-12%	-6%
Cc1ccccc1NC(=O)CN1C(=O)N/C(=C\c2ccc(N3CCOCC3)c(F)c2)C1=O	i	0%
c1cnc2ccc3c(c2c1)COCO3	-9%	-2%
COc1ccc(NC(=O)Cc2nnc(SCC(=O)NC3=NCCS3)n2C)cc1	13%	6%
Cc1ccc(C)c(S(=O)(=O)N2CCN(C(=O)c3ccc(C)s3)CC2)c1	-17%	-10%
O=[N+]([O-])c1ccc2c(c1)C=CC2	-13%	-10%
CCN(CC)S(=O)(=O)c1ccc(NS(=O)(=O)c2ccc3oc(=O)[nH]c3c2)cc1	-12%	-1%
CN(CC(=O)NCCc1ccc(F)cc1)CC(=O)Nc1ccc(F)c(F)c1F	-20%	-20%
Cc1cc(OC(C)C(=O)NCc2cccnc2)c2c3c(c(=O)oc2c1)CCC3 (centres undefined)	-7%	-11%
CCS(=O)(=O)c1nc(S(=O)(=O)c2ccc(Cl)cc2)c(N2CCC3(CC2)OCCO3)s1	-1%[7.34 µM]	-12%[7.34 µM]
COc1ccc(S(=O)(=O)Nc2ccccn2)cc1	-2%	-11%
CCn1c(C)c(C)c2cc(C(=O)NCCCN3CCN(C)CC3)ccc21	i	0%
COc1ccc(C(=O)NC(C)c2nnc(SCC(=O)NC3=NCCS3)n2C)cc1 (centres undefined)	-8%	6%
O=C(NCCC1CCCCN1S(=O)(=O)c1cccs1)C(=O)Nc1ccc(F)cc1 (centres undefined)	?	?
CN(C(=O)COC(=O)c1ccccc1C(=O)N(C)c1ccccc1)c1ccccc1	-9%	-11%
COc1ccc(NC(=O)CN(C)CC(=O)c2c(C)[nH]c3ccccc23)cc1	0%	-11%
COc1ccc(NC(=O)CNS(=O)(=O)c2cccs2)c(OC)c1	-1%	-9%&-6%
CC(C)(C)C(=O)Nc1ccc(C(=O)COC(=O)C2CC2)cc1	-7%	-11%
O=[N+]([O-])C(/C=C(\Cl)[N+](=O)[O-])=C(N1CCCCC1)N1CCCCC1	i	-5%
NC(=O)Nc1ccc(C(=O)OCC(=O)Nc2ccc(Cl)cc2C(=O)c2ccccc2)cc1	-5%	-10%
Cc1ccc(SCC(=O)NCc2ccc(F)cc2)cc1	0%	-2%
CCc1cc2c(=O)n(Cc3ccccc3)c(SC3CCOC3=O)nc2s1 (centres undefined)	-14%	-8%
CC1CCCC(C)N1C(=O)COC(=O)CCC1CCCC1 (centres undefined)	-21%	8%
CCN(CC)S(=O)(=O)c1cccc(NC(=O)COC(=O)/C=C/c2cccs2)c1	-10%	-10%
O=C(CCN1C(=O)c2cccc([N+](=O)[O-])c2C1=O)NC1CCCCCC1	-10%	-5%
CCCc1cc(=O)[nH]c(SCC(=O)NCCN2C(=O)CSC2=O)n1	-15%	-4%
Cc1ccc2c(c1)CCCN2C(=O)Nc1ccc2c(c1)OCO2	-5%	?
CCOc1ccc2nc(/N=C/c3nc(-c4ccc(Br)cc4)oc3O)sc2c1	-4%	8%
CCCCc1ccc(NC(=S)N2CCN(C(=O)c3ccco3)CC2)cc1	-8%	-24%
Cc1ccc(C(=O)Nc2ccc(N3CCOCC3)nc2N2CCOCC2)cc1	?	-9%
Cc1cccc(C)c1-n1cccc1/C=C1\SC(=S)N(c2cccc(C(=O)O)c2)C1=O	-6%	-1%
CC1(C)CC(=O)C(C(c2ccccc2F)C2C(=O)CC(C)(C)CC2=O)C(=O)C1	·	-2%
CCOc1c(Cl)cc(CNc2nnnn2C)cc1OC	i	-11%
N#C/C(=C/c1ccccc1[N+](=O)[O-])c1nnc2n1CCCCC2	-4%	-15%
COc1ccccc1Nc1nnc(SCC(=O)NC(=O)Nc2ccc3c(c2)OCCO3)s1	-10%	-14%
O=C(CCn1nc(-c2ccc(Cl)cc2)c2ccccc2c1=O)NN1CCOCC1	-23%	-13%
COc1ccc(S(=O)(=O)N2CCOCC2)cc1NC(=O)CCCOc1ccccc1	-12%	3%
COc1ccc(NC(=O)CSc2nnc(-c3cnccn3)n2C)cc1OC	-13%	0%
Clc1ccccc1C1CC(c2ccccc2)Nc2ncnn21 (centres undefined)	-8%	1%
Cc1ccc(SC2=C[C@@]3(O)CC[C@@H](O)[C@@](Sc4ccc(C)cc4)(C2=O)[C@H]3O)cc1	-24%	-14%
O=C(Nc1ccc(N2CCN(C(=O)c3ccco3)CC2)cc1)c1ccccc1Br	0%	-21%
COc1ccc(Cc2c(N)nc(C)nc2N)cc1	-5%	-13%
CCOc1ccc(/C(CCC(=O)O)=N/NC(=S)NC(C)C)cc1	13%	-2%
CN1/C(=C\C=C2/SC(=S)N(CC(=O)O)C2=O)C(C)(C)c2ccccc21	211%[activator]	·
O=C1CC(c2cccc(Br)c2)C2=C(COC2=O)N1 (centres undefined)	-18%	-18%
CCc1ccc(C2C(C(=O)Nc3ccc(Cl)cc3)=C(C)Nc3ncnn32)cc1 (centres undefined)	-9%	-8%
O=C(Cn1c(CO)nc2ccccc21)Nc1ccccc1Cl	-21%	-5%
CCCCN(c1ccccc1)S(=O)(=O)c1cc2c3c(c1)C(C)C(=O)N3CCC2 (centres undefined)	-12%	-14%
COc1cc(C2c3[nH]c4ccccc4c3CCN2Cc2cn(C)nc2C)ccc1F (centres undefined)	?	-10%
COc1ccccc1CCNS(=O)(=O)c1ccc(C(=O)O)n1C	i[7.34 µM]	-13%[7.34 µM]
Fc1cc(F)c(NC(=S)N2CCOCC2)c(F)c1	9%	-6%
CCCCN(CC)C(=O)CSc1nc2ccccc2c(=O)n1Cc1ccco1	-21%	-26%
CCCCN(C(=O)c1ccc([N+](=O)[O-])o1)c1c(N)n(CCCC)c(=O)[nH]c1=O	i	7%
O=C(NC(=O)N1CCOCC1)c1ccccc1	i	-11%

Other structures
SMILES	Vaccinia mCherry	Vaccinia Venus
Cc1ccc(CCNC(=O)c2cc3c(s2)-c2ccccc2OC3)cc1	-3%[7.34 µM]	-13%[7.34 µM]
C/C(=N\NC(=S)NC1CCCCC1)c1ccc(C#N)cc1	-15%	-13%
N#CCC(=O)N/N=C/c1ccc(Cl)cc1	-25%	-10%
Cn1c(=O)cc(N)n(-c2ccccc2)c1=O	-12%	-11%
CCCCCCC(=O)Nc1nc(C)c(-c2csc(Nc3cccc(OC)c3)n2)s1	?	?
O=C(c1cccc(Cl)c1)N1CCC(C(=O)N2CCN(Cc3ccccc3)CC2)CC1	i	-17%
CCCCN1C(=O)C(CC(=O)NCCN2CCOCC2)CC(C(=O)N2CCCCCC2)=C1C (centres undefined)	2%	2%
COc1ccccc1CNC(=O)c1cnc2ccccn2c1=O	i	-17%
Cc1ccc(C(=O)Nc2ccc(S(=O)(=O)NC3=NCCCCC3)cc2)c(C)c1	-11%	-8%
COc1ccc(C(=O)NC2CCCc3c2cnn3-c2cc(F)cc(F)c2)c(OC)n1 (centres undefined)	-13%	-8%
CCNC(=O)C1CCCN(C(=O)Cc2ccc3ccccc3c2)CC1 (centres undefined)	19%	8%
Cc1csc(N(C(=O)c2cccc(S(=O)(=O)N(C)C)c2)c2ccccc2)n1	-10%	-14%
COc1ccc(CCNC(=O)c2ccc(Cn3c(SCC(=O)NCCC(C)C)nc4cc5c(cc4c3=O)OCO5)cc2)cc1OC	-22%	-42%
COC(=O)C(C(=O)Nc1cccc(C)n1)C1CCCCCC1 (centres undefined)	-9%	-8%
COc1cc(C(=O)Nc2cccc(-c3cn4cccnc4n3)c2)cc(OC)c1OC	-1%	-22%
CSCC[C@H](NC(=O)c1cccc([N+](=O)[O-])c1C)c1nc2ccccc2[nH]1	-1%	-7%
CCC(CC)C(=O)Nc1cccc(C(=O)N2CCCCCC2)c1	i	-8%
Cc1cccc(NC(=O)CCNC(=O)c2ccc(Br)cc2)c1	-6%	-3%
CCCNC(=O)COc1ccc2c(=O)c(Oc3ccccc3F)coc2c1	-12%	23%
Cc1ccc(S(=O)(=O)c2cc3c(=O)n4ccccc4nc3n(CC3CCCO3)c2=N)cc1C (centres undefined)	-10%	-16%
CCOC(=O)Cn1c(=O)c(-c2ccccc2NC)nc2ccccc21	·	?
CCC(C)NC(=O)Cn1c(=O)n(Cc2ccc(C(=O)NCc3ccc(C)cc3)cc2)c(=O)c2ccccc21 (centres undefined)	-7%	-10%
O=C(O)C1C2CCC(O2)C1C(=O)NCc1ccc(Cl)cc1 (centres undefined)	i	-7%
CCCCCC(=O)N1C[C@@H](n2cc(COC(=O)c3ccccc3)nn2)[C@H](O)C[C@@H]1c1ccc(Cl)cc1	-15%	-15%
COC(=O)c1ccc(NC(=O)C(=O)NCC(c2cccnc2)N2CCc3ccccc32)cc1 (centres undefined)	-15%	-12%
CCC1S/C(=N/C(=O)NC2CCCCC2)NC1=O (centres undefined)	i	-16%
O=Cc1cc2ccccc2nc1SCCCF	i	18%
COC(=O)c1ccccc1OCC(=O)NC1CCCCC1	-11%	-12%
Cc1cc2cc(C)c(SCC(=O)NCc3ccco3)nc2cc1C	-8%	-7%

Entries listed so far containing a Cl atom, in the order listed:
SMILES	Vaccinia mCherry	Vaccinia Venus
CCS(=O)(=O)c1nc(S(=O)(=O)c2ccc(Cl)cc2)c(N2CCC3(CC2)OCCO3)s1	-1%[7.34 µM]	-12%[7.34 µM]
O=[N+]([O-])C(/C=C(\Cl)[N+](=O)[O-])=C(N1CCCCC1)N1CCCCC1	i	-5%
NC(=O)Nc1ccc(C(=O)OCC(=O)Nc2ccc(Cl)cc2C(=O)c2ccccc2)cc1	-5%	-10%
CCOc1c(Cl)cc(CNc2nnnn2C)cc1OC	i	-11%
O=C(CCn1nc(-c2ccc(Cl)cc2)c2ccccc2c1=O)NN1CCOCC1	-23%	-13%
Clc1ccccc1C1CC(c2ccccc2)Nc2ncnn21 (centres undefined)	-8%	1%
CCc1ccc(C2C(C(=O)Nc3ccc(Cl)cc3)=C(C)Nc3ncnn32)cc1 (centres undefined)	-9%	-8%
O=C(Cn1c(CO)nc2ccccc21)Nc1ccccc1Cl	-21%	-5%
N#CCC(=O)N/N=C/c1ccc(Cl)cc1	-25%	-10%
O=C(c1cccc(Cl)c1)N1CCC(C(=O)N2CCN(Cc3ccccc3)CC2)CC1	i	-17%
O=C(O)C1C2CCC(O2)C1C(=O)NCc1ccc(Cl)cc1 (centres undefined)	i	-7%
CCCCCC(=O)N1C[C@@H](n2cc(COC(=O)c3ccccc3)nn2)[C@H](O)C[C@@H]1c1ccc(Cl)cc1	-15%	-15%

The order is random. Share with any hit: about 0.88%.
